Compound activity from PubChem.
CtBP-E1A inh: inhibitors of CtBP/E1A interaction. AlphaScreen GST-E1A/His-CtBP binding, 1536-well; stronger effect = lower value; control for the full effect not named in the record. activity change, % (no concentration beside the values). 340,000 tested, 0.49% active; in the data active means activity change below about -65%; inconclusive means about -30% to -65%; inactive means above about -30%; also: % is scaled to controls: 0 for no effect and ±100 for the full control effect; compound concentration not given in the record
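Steps: dispense buffer (Tris pH 8.0, NaCl 300 mM, TCEP 1 mM, BSA, Tween 20); add 5X protein mix (GST-E1A, His-CtBP, 125 nM each); pin 23 nL compound; 2 h at 37 °C, dark; add 5X beads (50 ug/mL); 1 h; read.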
Sfp PPTase inh: blocks B. subtilis Sfp PPTase activity. Q9F4F7. Biochemical Sfp PPTase activity, qHTS. Potency, µM, inactives show max response, negative = inhibition, most hits filed as inhibitors. 310,000 tested, 3.5% active. AID 1490; active = well fitted inhibition curve with a large enough effect; inconclusive = small, poorly fitted or top-dose-only effect, or another doubt; inactive = no such curve, though single readings can be large or run the other way;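 also: the enzyme is Sfp with the accession as filed and its product quenches rhodamine fluorescence; potency is read from the fitted curve at half-maximal effect; 0% = enzyme reaction without inhibitor and -100% = no enzyme wells; top concentration of the series not given in the record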
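Reaction rates are the 30-min fluorescence difference (ex 525, em 598 nm) in wells containing 15 nM Sfp, 5 uM rhodamine-CoA and 12.5 uM BHQ-2-YbbR at pH 7.6 with 10 mM MgCl2.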
ClpP mod: qHTS Assay for Activators of ClpP. ATP-dependent Clp protease proteolytic subunit (Bacillus subtilis (strain 168)), P80244. purified B. subtilis ClpP, FRET peptide cleavage, 20 min. Potency, µM (highest dose often 57.5 µM), without a hit: at the top dose activity change, negative = active. 340,000 tested, 1.9% active; active = well fitted falling curve with a large enough effect; inconclusive = small, poorly fitted or top-dose-only effect; inactive = no such curve, though single readings can be large or run the other way; also: potency is read from the fitted curve at half-maximal effect; the source files actives as falling curves though it sought activators and does not explain the sign; nearly all actives have a fitted effect of over 65% in size; many hits overshoot -100%
Target sequence (P80244 whole entry, looked up): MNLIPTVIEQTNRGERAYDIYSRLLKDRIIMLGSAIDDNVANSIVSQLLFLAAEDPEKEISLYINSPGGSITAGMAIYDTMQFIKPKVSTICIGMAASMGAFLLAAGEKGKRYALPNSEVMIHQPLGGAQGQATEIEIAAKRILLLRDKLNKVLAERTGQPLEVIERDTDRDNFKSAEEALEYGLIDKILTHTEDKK
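Purified B. subtilis ClpP, 10 microg/mL final in Tris/HCl pH8 with KCl, BSA, glycerol and Tween-20, cleaved an Abz/nitrotyrosine-quenched decapeptide. Fluorescence (ex 320, em 430) was read at 0 and 20 min at room temperature. Delta was normalized to 5.8 microM ADEP and DMSO/no-enzyme controls.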
gsp antagonist: gsp mutant antagonism | gsp-mutant cells, cAMP HTRF, 30 min; control for the full effect not named in the record | 340,000 tested, 0.4% active | Potency, µM (doses to about 76.9 µM), inactives show at the top dose activity change, negative = inhibition, most hits filed as inhibitors; active = falling curve of any shape with a large fitted effect; inconclusive = falling curve, mostly with a smaller effect; inactive = flat or rising curve; cell line not stated here;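 also: intracellular cAMP measured with PDE inhibitor Ro 20-1724 present during compound exposure; potency is read from the fitted curve at half-maximal effect; % is scaled to controls: 0 for no effect and ±100 for the full control effect; nearly all actives have a fitted effect of over 65% in size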
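G418-selected cells were plated in DMEM/10% FBS for 16-24 h at 37C, then treated with compounds plus the PDE inhibitor […] (300 uM solution added) for 30 min at 37C. Intracellular cAMP was measured by HTRF after 30 min lysis at room temperature.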
gsp agonist: gsp mutant agonism; gsp mutant cells, cAMP HTRF, 30 min; control for the full effect not named in the record; Potency, µM (doses to about 76.9 µM), without a hit: at the highest dose activation (cAMP increase), most hits filed as activators; 340,000 tested, 0.13% active; active = well fitted activation curve with a large enough effect; inconclusive = small, poorly fitted or top-dose-only effect, or another doubt; inactive = no such curve, though single readings can be large or run the other way; cell line not stated here;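 also: phosphodiesterase inhibitor Ro 20-1724 added with compounds to block cAMP breakdown; potency is read from the fitted curve at half-maximal effect; nearly all actives have a fitted effect of over 60% in size; about a fifth of the inactives were tested at one dose only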
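Cells stably selected in G418 were plated at 2000/well, grown 16-24 hr, then given compounds in DMSO with the PDE inhibitor […] (300 uM solution added) for 30 min at 37C; cAMP was read by HTRF.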
Menin-MLL FL inh: menin-MLL binding inhibition, fluorescein peptide; FP activity change, % at 61.4 µM; Fluorescence polarization, fluorescein-MLL peptide displacement from menin; 290,000 tested, under 10 active; inconclusive = falling polarisation curve, or a change in total fluorescence; inactive = total fluorescence flat and polarisation flat or rising; no compound was filed as active; the % refers to the polarisation; negative = inhibition;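 also: % of control where 0% means no effect; inhibitors lower the polarisation; unlabelled MLL peptide was the positive control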
TRPV1 potentiator: potentiators of human vanilloid receptor 1 (TRPV1); TRPV1-expressing cells, Fluo-8 calcium influx, capsaicin EC20 potentiation; host cell line not named in the record; control for the full effect not named in the record; potentiation, % at 8.33 µM; 320,000 tested, 0.02% active; active means potentiation above 80%; inconclusive means 30% to 80%; inactive means below 30%; also: 0% is about no effect
Target sequence (Q8NER1 whole entry, looked up): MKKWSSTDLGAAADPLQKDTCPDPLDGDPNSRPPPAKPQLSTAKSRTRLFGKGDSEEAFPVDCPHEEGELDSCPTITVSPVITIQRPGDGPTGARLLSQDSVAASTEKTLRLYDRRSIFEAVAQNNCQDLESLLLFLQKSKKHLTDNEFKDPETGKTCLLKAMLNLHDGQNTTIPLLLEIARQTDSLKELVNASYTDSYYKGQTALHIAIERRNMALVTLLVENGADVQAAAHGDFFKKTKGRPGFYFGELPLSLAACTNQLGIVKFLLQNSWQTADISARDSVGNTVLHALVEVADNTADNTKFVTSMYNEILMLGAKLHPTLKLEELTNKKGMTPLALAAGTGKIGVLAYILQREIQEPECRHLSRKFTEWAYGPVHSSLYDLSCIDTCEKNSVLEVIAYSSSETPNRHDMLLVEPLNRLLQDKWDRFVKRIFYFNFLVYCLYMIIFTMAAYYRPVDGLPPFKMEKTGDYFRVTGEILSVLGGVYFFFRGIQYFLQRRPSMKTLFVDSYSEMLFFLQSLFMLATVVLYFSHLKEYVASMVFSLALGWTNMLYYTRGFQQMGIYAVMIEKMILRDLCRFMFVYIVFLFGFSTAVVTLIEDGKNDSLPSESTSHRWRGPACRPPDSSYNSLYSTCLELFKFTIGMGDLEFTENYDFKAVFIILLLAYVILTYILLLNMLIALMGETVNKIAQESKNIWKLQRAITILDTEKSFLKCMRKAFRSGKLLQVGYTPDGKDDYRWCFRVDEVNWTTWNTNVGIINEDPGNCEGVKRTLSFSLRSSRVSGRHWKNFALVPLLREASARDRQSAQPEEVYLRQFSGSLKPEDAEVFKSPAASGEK
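TRPV1-expressing cells were cultured overnight at 35.5C and loaded with Fluo-8 calcium dye for 40 to 90 min at room temperature. After a 10 s baseline, compound was added and calcium influx was read kinetically for 3 min (ex 480/em 520 nm).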
Starred values were filed as active, the others as inactive; & = joins results of further samples; [ ] = another dose, or the depositor's remark.

How did CSCc1cccc(C(=O)OC(C)C(=O)Nc2c(C)n(C)n(-c3ccccc3)c2=O)c1 (stereo not given) do in these assays?
CtBP-E1A inh: 6; ClpP mod: 0.0%; gsp antagonist: 6%; gsp agonist: inconclusive; TRPV1 potentiator: 25

How did COc1ccc([N+](=O)[O-])cc1NC(=O)C(C)Sc1nc(C)c(C)c(C)n1 (stereo not given) do in these assays?
CtBP-E1A inh: -12; Sfp PPTase inh: 1%; ClpP mod: 28µM*; gsp antagonist: -14%; gsp agonist: 0%; Menin-MLL FL inh: 5.8; TRPV1 potentiator: -3

Results for O=C(CSc1nnc(NC(=O)c2ccccc2F)s1)NC1CCCC1 ?
CtBP-E1A inh: 1; Sfp PPTase inh: -15%; gsp antagonist: -13%; gsp agonist: 15%; Menin-MLL FL inh: 2.7; TRPV1 potentiator: 14

What do the screens show for `COc1ccc(CN(C)CC2CCCN(CCc3ccccc3C)C2)cc1O` (stereo not given)?
CtBP-E1A inh: -10; Sfp PPTase inh: 6%; gsp antagonist: 5%; gsp agonist: -6%; Menin-MLL FL inh: -3.3; TRPV1 potentiator: -8

Results for CC(Sc1nnc(Cc2ccc([N+](=O)[O-])cc2)o1)C(N)=O (stereo not given) ?
CtBP-E1A inh: -18; Sfp PPTase inh: 4%; ClpP mod: -1.8%; gsp antagonist: -4%; gsp agonist: -26%; Menin-MLL FL inh: 2.6; TRPV1 potentiator: -10

How did Cc1ccc2oc(-c3cccc(NC(=O)Cc4cccs4)c3)nc2c1 do in these assays?
CtBP-E1A inh: 43; Sfp PPTase inh: -21%; ClpP mod: inconclusive; gsp antagonist: 13%; gsp agonist: -27%; Menin-MLL FL inh: 5.6; TRPV1 potentiator: -9

How did Cc1cc(Br)ccc1SCC(=O)OCC(=O)Nc1ccc2[nH]c(=O)[nH]c2c1 do in these assays?
ClpP mod: -2.4%; gsp antagonist: 9%; gsp agonist: 3%; TRPV1 potentiator: -2

Results for O=C(/C=C/c1ccco1)NC(=S)Nc1nc(-c2ccc3ccccc3c2)cs1 ?
CtBP-E1A inh: -2; Sfp PPTase inh: 7%; ClpP mod: -0.8%; gsp antagonist: -9%; gsp agonist: -2%[15.4 µM]; Menin-MLL FL inh: 2.6; TRPV1 potentiator: 7

How did COc1cc2c(cc1OC)CN(C(=S)Nc1cccc(Cl)c1C)CC2 do in these assays?
CtBP-E1A inh: -16; Sfp PPTase inh: 11%; ClpP mod: 32µM*; gsp antagonist: -17%; gsp agonist: -6%[15.4 µM]; Menin-MLL FL inh: -0.3; TRPV1 potentiator: 12

Results for Cc1cc(C)cc(OCc2nnc(SCC(=O)N3CCCCC3)o2)c1 ?
CtBP-E1A inh: 9; Sfp PPTase inh: 26%; gsp antagonist: -9%; gsp agonist: 8%[15.4 µM]; Menin-MLL FL inh: 0.6; TRPV1 potentiator: 25

Results for CCN(CC)C(=O)c1cccc(NC(=O)CCc2nc3sc4c(c3c(=O)[nH]2)CCCC4)c1 ?
CtBP-E1A inh: -8; ClpP mod: -0.4%; gsp antagonist: -10%; gsp agonist: -6%[15.4 µM]; TRPV1 potentiator: 5

How did CCCCn1c(N)c(N(CC(C)C)C(=O)CN2C(=O)NC3(CCC(C(C)(C)CC)CC3)C2=O)c(=O)[nH]c1=O (stereo not given) do in these assays?
CtBP-E1A inh: 1; ClpP mod: 1.2%; gsp antagonist: 4%; gsp agonist: 11%[15.4 µM]

Results for CCc1cc(C(=O)OC)c(NC(=O)C2CC(=O)NN2Cc2ccccc2)s1 (stereo not given) ?
CtBP-E1A inh: -3; Sfp PPTase inh: -3%; ClpP mod: -2.3%; gsp antagonist: -13%; gsp agonist: -3%; Menin-MLL FL inh: 2.2; TRPV1 potentiator: 9

What do the screens show for `S=C(NCCc1ccc(Cl)cc1)NC1CC1`?
CtBP-E1A inh: 5; Sfp PPTase inh: 24%; ClpP mod: 2.1%; gsp antagonist: -3%; gsp agonist: 6%; Menin-MLL FL inh: -1.3; TRPV1 potentiator: -17

How did O=C(NCc1ccccn1)c1cc(-c2ccc(-c3ccccc3)cc2)nc2ccccc12 do in these assays?
Sfp PPTase inh: 25µM*; ClpP mod: 3.9%; gsp antagonist: -13%; gsp agonist: 6%; Menin-MLL FL inh: 3.4; TRPV1 potentiator: 19

What do the screens show for `Cc1ccc2c(c1)C(=O)C(=O)N2Cc1ccc(Br)cc1`?
CtBP-E1A inh: -5; ClpP mod: 5.3%; gsp antagonist: 10%

What do the screens show for `CC1CCCC(NC(=O)CCn2c(=S)oc3ccccc32)C1C` (stereo not given)?
CtBP-E1A inh: -2; Sfp PPTase inh: 3%; gsp antagonist: -7%; gsp agonist: 0%[15.4 µM]; Menin-MLL FL inh: -1.7; TRPV1 potentiator: -16

Results for CC(=O)Nc1ccc(S(=O)(=O)NC(C)c2ccccc2)cc1 (stereo not given) ?
CtBP-E1A inh: -3; Sfp PPTase inh: 0%; ClpP mod: 0.9%; gsp antagonist: 9%; gsp agonist: 0%[15.4 µM]; Menin-MLL FL inh: -3.4; TRPV1 potentiator: 3

Results for CCCCCC1C/C(=N\O)C=C(C)C1C(=O)OC (stereo not given) ?
CtBP-E1A inh: -18; Sfp PPTase inh: 7%; gsp antagonist: 2%; gsp agonist: -13%; Menin-MLL FL inh: -1.2; TRPV1 potentiator: -2

Results for CCOC(=O)C1(Cc2ccc(Cl)cc2)CCN(Cc2cn(CC)nc2C)CC1 ?
CtBP-E1A inh: -3; Sfp PPTase inh: 14%; ClpP mod: -1.0%; gsp antagonist: 2%; gsp agonist: 7%; Menin-MLL FL inh: 5.3; TRPV1 potentiator: -15

How did C/C=C(\C)C(=O)NCCN1C2=NC[C@H](C)N2C[C@@H]1Cc1ccc(OC)cc1 do in these assays?
CtBP-E1A inh: -1; Sfp PPTase inh: 9%; ClpP mod: -2.2%; gsp antagonist: 3%; gsp agonist: 7%; Menin-MLL FL inh: -3.4; TRPV1 potentiator: -5

How did O=C(CN1C(=O)C2C3C=CC(C3)C2C1=O)NCCN1CCCc2ccccc21 (stereo not given) do in these assays?
CtBP-E1A inh: -2; Sfp PPTase inh: -2%; ClpP mod: -3.1%; gsp antagonist: -9%; gsp agonist: -3%[15.4 µM]; Menin-MLL FL inh: -3.2; TRPV1 potentiator: -18

Results for CSc1cc(C)n(-c2ccccc2C)c(=S)c1C(C)=O ?
CtBP-E1A inh: 5; Sfp PPTase inh: 5%; ClpP mod: -1.9%; gsp antagonist: 11%; gsp agonist: 1%; Menin-MLL FL inh: -5.0; TRPV1 potentiator: -3

Results for CC(C)SC1=NC(C)(C)C=C(/C=C/c2ccc(Cl)cc2Cl)N1 ?
CtBP-E1A inh: -6; Sfp PPTase inh: 3%; ClpP mod: -3.0%; gsp antagonist: 7%; gsp agonist: 2%; Menin-MLL FL inh: 5.1; TRPV1 potentiator: inconclusive

How did CC(NC(=O)c1ccc2ccccc2n1)c1ccc(Br)cc1 (stereo not given) do in these assays?
CtBP-E1A inh: 20; Sfp PPTase inh: -24%; gsp antagonist: -9%; gsp agonist: 2%; Menin-MLL FL inh: 4.4; TRPV1 potentiator: -6

How did O=C(CCn1c(=O)oc2ccccc21)N1CCOCC1 do in these assays?
CtBP-E1A inh: 5; Sfp PPTase inh: 11%; ClpP mod: 0.4%; gsp antagonist: 6%; gsp agonist: -28%; Menin-MLL FL inh: -2.4; TRPV1 potentiator: 6

What do the screens show for `CCCC(C)NC(=O)COC(=O)c1cc(Br)c(Br)s1` (stereo not given)?
CtBP-E1A inh: 17; Sfp PPTase inh: 2%; gsp agonist: 10%[15.4 µM]; Menin-MLL FL inh: -3.4; TRPV1 potentiator: -6

How did O=C(COc1ncnc2ccccc12)N1CCN(S(=O)(=O)c2ccc(Cl)cc2)CC1 do in these assays?
CtBP-E1A inh: 7; Sfp PPTase inh: 2%; ClpP mod: 1.3%; gsp antagonist: 9%; gsp agonist: -33%[inhibitor]; Menin-MLL FL inh: 1.9; TRPV1 potentiator: -4

How did CC(=O)N1c2ccc(S(=O)(=O)N3CCC(C(=O)Nc4cccc(C)c4C)CC3)cc2CC1C (stereo not given) do in these assays?
CtBP-E1A inh: 1; Sfp PPTase inh: 19%; ClpP mod: 0.5%; gsp antagonist: -10%; gsp agonist: inconclusive; TRPV1 potentiator: 3

Results for CC(C)(C)NC(=O)NC(=O)CN1CCN(c2cccc(Cl)c2)CC1 ?
CtBP-E1A inh: 5; Sfp PPTase inh: -3%; gsp antagonist: -6%; gsp agonist: 23%; Menin-MLL FL inh: 1.8; TRPV1 potentiator: -9

Results for CCCC(=O)Nc1ccc(NC(=O)c2ccccc2OC)cn1 ?
CtBP-E1A inh: -4; Sfp PPTase inh: 14%; ClpP mod: -5.7%; gsp antagonist: 4%; gsp agonist: -19%; Menin-MLL FL inh: 6.3; TRPV1 potentiator: 9

How did O=C(Nc1ccc2c(c1)OCCO2)c1cnccn1 do in these assays?
CtBP-E1A inh: -1; Sfp PPTase inh: 1%; ClpP mod: -2.2%; gsp antagonist: 2%; gsp agonist: -1%; Menin-MLL FL inh: 2.0; TRPV1 potentiator: -2

Results for CC(=O)c1sc(N/N=C\c2cccc(Br)c2)nc1C ?
CtBP-E1A inh: -7; Sfp PPTase inh: inconclusive; ClpP mod: -3.5%; gsp antagonist: -7%; gsp agonist: -54%[inhibitor]; Menin-MLL FL inh: inconclusive; TRPV1 potentiator: -2

What do the screens show for `CCc1cc2cc(C)cc(C)c2nc1SCC(=O)NNC(=O)c1ccco1`?
CtBP-E1A inh: 4; Sfp PPTase inh: -10%; ClpP mod: -1.8%; gsp antagonist: inconclusive; gsp agonist: inconclusive; Menin-MLL FL inh: -1.4; TRPV1 potentiator: 5

What do the screens show for `Cc1cc(C)cc(OCC(=O)NCCc2nc3ccccc3[nH]2)c1`?
CtBP-E1A inh: -2; Sfp PPTase inh: -1%; ClpP mod: -1.3%&-2.4%; gsp antagonist: -8%; gsp agonist: -1%[15.4 µM]; Menin-MLL FL inh: 3.0; TRPV1 potentiator: -18&-6
